nsP2pro inh: Primary qHTS for inhibitors of NSP2Pro chikungunya virus (CHIKV). Polyprotein P1234 (Chikungunya virus (strain S27-African prototype)), Q8JUX6. FRET peptide cleavage, nsP2pro, fluorescence 1 h. Potency, µM (highest dose often 24.9 µM), inactives show at the highest dose activity change, negative = inhibition, most hits filed as inhibitors. 31,000 compounds, 1.1% hits. AID 1964107, 2024; active means well fitted inhibition curve with a large enough effect; inconclusive means small, poorly fitted or top-dose-only effect; inactive means no such curve, though single readings can be large or run the other way; also: nearly all actives have a fitted effect of over 60% in size; a reference inhibitor and vehicle were the controls
Target sequence (Q8JUX6 whole entry, looked up): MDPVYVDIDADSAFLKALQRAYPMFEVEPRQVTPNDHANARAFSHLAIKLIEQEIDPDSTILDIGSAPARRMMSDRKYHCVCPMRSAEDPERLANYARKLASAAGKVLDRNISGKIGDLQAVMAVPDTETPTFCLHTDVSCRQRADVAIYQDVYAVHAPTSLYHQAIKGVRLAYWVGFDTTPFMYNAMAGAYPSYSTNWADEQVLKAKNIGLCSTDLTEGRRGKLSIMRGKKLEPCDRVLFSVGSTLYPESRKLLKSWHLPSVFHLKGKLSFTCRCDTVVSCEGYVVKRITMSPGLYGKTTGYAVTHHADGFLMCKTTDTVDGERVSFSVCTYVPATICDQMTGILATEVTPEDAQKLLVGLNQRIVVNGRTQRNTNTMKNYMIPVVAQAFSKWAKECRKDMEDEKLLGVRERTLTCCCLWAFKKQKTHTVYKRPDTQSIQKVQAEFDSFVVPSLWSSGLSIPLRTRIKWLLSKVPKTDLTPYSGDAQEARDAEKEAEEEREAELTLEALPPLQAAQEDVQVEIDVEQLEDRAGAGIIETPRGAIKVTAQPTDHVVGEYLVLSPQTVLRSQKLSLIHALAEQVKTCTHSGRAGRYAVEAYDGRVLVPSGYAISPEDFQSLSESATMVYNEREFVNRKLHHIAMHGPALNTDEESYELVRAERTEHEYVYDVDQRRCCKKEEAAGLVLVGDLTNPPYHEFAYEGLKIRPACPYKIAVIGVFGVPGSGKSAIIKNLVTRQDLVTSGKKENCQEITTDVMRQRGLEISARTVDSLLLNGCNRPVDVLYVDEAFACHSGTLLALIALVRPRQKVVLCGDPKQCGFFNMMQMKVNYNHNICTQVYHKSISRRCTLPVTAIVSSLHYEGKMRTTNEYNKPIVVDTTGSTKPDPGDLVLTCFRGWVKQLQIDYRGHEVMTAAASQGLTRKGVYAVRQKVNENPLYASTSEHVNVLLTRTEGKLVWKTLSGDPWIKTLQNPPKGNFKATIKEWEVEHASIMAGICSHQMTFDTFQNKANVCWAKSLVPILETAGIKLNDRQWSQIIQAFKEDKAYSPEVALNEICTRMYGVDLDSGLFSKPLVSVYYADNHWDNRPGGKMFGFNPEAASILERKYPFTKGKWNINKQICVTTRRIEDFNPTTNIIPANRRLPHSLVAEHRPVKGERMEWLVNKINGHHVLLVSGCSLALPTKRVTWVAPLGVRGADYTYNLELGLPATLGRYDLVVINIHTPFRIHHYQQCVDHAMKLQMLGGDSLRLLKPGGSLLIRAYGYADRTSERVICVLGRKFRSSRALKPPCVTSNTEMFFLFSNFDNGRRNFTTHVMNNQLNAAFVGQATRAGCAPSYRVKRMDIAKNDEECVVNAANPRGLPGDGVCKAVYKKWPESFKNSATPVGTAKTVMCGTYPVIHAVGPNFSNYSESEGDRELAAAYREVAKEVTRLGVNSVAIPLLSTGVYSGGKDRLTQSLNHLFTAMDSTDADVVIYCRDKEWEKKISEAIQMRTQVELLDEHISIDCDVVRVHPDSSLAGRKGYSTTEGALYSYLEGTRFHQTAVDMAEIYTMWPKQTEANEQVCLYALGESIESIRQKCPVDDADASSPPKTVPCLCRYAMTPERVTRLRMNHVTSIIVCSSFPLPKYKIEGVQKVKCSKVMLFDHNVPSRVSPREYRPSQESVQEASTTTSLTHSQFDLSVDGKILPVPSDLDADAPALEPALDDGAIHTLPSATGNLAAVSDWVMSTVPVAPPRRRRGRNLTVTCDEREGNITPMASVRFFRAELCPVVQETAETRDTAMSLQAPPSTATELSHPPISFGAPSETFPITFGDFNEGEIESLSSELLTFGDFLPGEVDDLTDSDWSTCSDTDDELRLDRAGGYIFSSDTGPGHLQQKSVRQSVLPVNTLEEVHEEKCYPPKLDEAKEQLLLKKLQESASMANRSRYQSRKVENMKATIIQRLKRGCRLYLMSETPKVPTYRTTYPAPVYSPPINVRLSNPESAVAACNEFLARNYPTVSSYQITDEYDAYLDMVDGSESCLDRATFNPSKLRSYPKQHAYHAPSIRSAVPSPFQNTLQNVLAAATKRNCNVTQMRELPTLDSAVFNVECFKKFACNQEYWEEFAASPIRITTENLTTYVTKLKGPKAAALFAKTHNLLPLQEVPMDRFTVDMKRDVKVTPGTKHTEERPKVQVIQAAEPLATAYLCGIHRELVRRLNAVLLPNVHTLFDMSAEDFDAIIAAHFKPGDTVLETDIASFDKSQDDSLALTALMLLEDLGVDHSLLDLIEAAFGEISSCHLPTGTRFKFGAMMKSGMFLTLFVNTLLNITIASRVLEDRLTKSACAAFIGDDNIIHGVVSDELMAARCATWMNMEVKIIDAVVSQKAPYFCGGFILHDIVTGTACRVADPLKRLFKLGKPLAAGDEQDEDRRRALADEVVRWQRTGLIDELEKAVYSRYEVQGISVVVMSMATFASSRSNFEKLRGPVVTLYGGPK
The depositor's hits bear a star; i = inactive; ? = inconclusive; & = joins results of further samples; [ ] = remark or other dose. % is scaled to controls: 0 for no effect and ±100 for the full control effect; potency is read from the fitted curve at half-maximal effect. Some of the compounds tested (hit frequency here may not be typical).

Structure | nsP2pro inh
Cn1cc(C(=O)N2CCCC(c3nnnn3C)C2)cn1 (stereo unspecified) | i
CC[C@@H]([C@H](C)O)n1ncn(-c2ccc(N3CCN(c4ccc(OC[C@@H]5CO[C@@](Cn6cncn6)(c6ccc(F)cc6F)C5)cc4)CC3)cc2)c1=O | 7.0%&-0.6%
COc1cccc(Nc2nnc(-c3cc4ccc(O)cc4oc3=O)s2)c1 | 25.4%
CC(C)c1noc([C@@H]2C[C@@H](O)CN2Cc2cc3ccccc3o2)n1 | -3.3%[39.2 µM]
Cc1cc(NS(=O)(=O)c2ccc3c(c2)CCC(=O)N3)ccc1F | i
Cc1cccc(Nc2ncc(NC(=O)c3cccc(F)c3)c(Nc3cccc(C)c3)n2)c1 | ?
COc1ccc(C2=NOC3(CCN([S+](=O)([O-])c4cccc(C(F)(F)F)c4)C3)C2)cc1 (stereo unspecified) | 1.2%
O=C(Nc1ccc2ccccc2c1)Nc1nnc(-c2ccccn2)s1 | i

Continued:
Structure | nsP2pro inh
CCOc1ccccc1-c1nnc2n1N=C(c1c(OC)cccc1OC)CS2 | i
CC(C)N(C(=O)Cn1cc(S(=O)(=O)Cc2ccc(C(F)(F)F)cc2)c2ccccc21)C(C)C | -12.5%
Cn1nnnc1SCCCNCc1cccc(OCc2ccccc2F)c1 | 8.0%
O=C(O)c1ccc2oc(=O)n(Cc3ccccc3)c2c1 | -13.4%
CC1(C)O[C@@]2(C)CC[C@@H]1C[C@@H]2OC1OC(CO)C(O)C(O)C1O (stereo partly specified) | 165.7%[activator]
Cc1ccccc1Nc1sc(C(=O)c2ccccc2)c(N)c1S(C)(=O)=O | -5.8%
Clc1ccc(Nc2nc3ccccc3c3nc(C4CCCCC4)[nH]c23)cc1Cl | -16.8%
C=C[C@](C)(CC/C=C(\C)C(=O)O)O[C@@H]1OC[C@H](O)[C@H](O)[C@H]1O | 174.9%[activator]

(further entries)
Structure | nsP2pro inh
CC(C)c1nc(C(=O)N2CCc3onc(-c4ccccc4F)c3C2)cs1 | -10.8%
CCN(CC)CCCn1c(-c2ccccc2)nc2c(NCCOC)nc(C)nc21 | -4.8%
CC(=O)O[C@H]1C[C@H](OC(C)=O)[C@]2(C)[C@H](CC[C@@]34O[C@@H]3C3=C(C)C(=O)O[C@@H]3C[C@H]42)C1(C)C | 22.6%[10 µM]
O=C([C@@H](Cc1cccc(C(F)(F)F)c1)NS(=O)(=O)c1cc(F)c2c(c1)CCNC2)N1CCCC1 | 15.5%
Cc1ccc(NC(=O)CSc2nc3c(sc4ccccc43)c(=O)n2CCCC(=O)NC2CCCC2)cc1C | -15.5%
CCS(=O)(=O)N1CCc2cc(C(=O)NCCc3ccc(OC)cc3)ccc21 | -20.9%
CN(C)CCC=C1c2ccccc2CCc2ccccc21 | 0.6%
O=C(CSc1nc2c([nH]c3ccccc32)c(=O)n1-c1ccc(Cl)cc1)N1CCCC1 | -16.0%

The list goes on, starting with the last five of the part before.
Structure | nsP2pro inh
O=C([C@@H](Cc1cccc(C(F)(F)F)c1)NS(=O)(=O)c1cc(F)c2c(c1)CCNC2)N1CCCC1 | 15.5%
Cc1ccc(NC(=O)CSc2nc3c(sc4ccccc43)c(=O)n2CCCC(=O)NC2CCCC2)cc1C | -15.5%
CCS(=O)(=O)N1CCc2cc(C(=O)NCCc3ccc(OC)cc3)ccc21 | -20.9%
CN(C)CCC=C1c2ccccc2CCc2ccccc21 | 0.6%
O=C(CSc1nc2c([nH]c3ccccc32)c(=O)n1-c1ccc(Cl)cc1)N1CCCC1 | -16.0%
COc1cccc2c1C(=O)c1c(O)c3c(c(O)c1C2=O)C[C@@](O)(C(=O)CO)C[C@@H]3O[C@H]1C[C@H](N)[C@H](OC2CCCCO2)[C@H](C)O1 (stereo partly specified) | 180.8%[activator]
Brc1c(NC2=NCCN2)ccc2nccnc12 | ?
COc1cc(O)c(C(CC(=O)N2CCCC(C(=O)N3CCCCC3)C2)c2ccc3c(c2)OCO3)c(OC)c1 (stereo unspecified) | 2.1%[39.2 µM]
O=C(Nc1ccccc1)N1CCN(Cc2ccc3ccccc3n2)CC1 | -5.8%
CCCCC(=O)Nc1ccc(C(=O)OCc2cc(=O)n3nc(C4CC4)sc3n2)cc1 | -14.8%
C=C1CC[C@@H]2[C@](C)(CO)[C@H](O)CC[C@@]2(C)[C@@H]1/C=C/C1=CCOC1=O | 11.0%
CN(C)S(=O)(=O)c1ccc2c(c1)N(CC(=O)N1CCN(c3cccc(Cl)c3)CC1)CCS2 | -9.8%
CCOc1ccc(CCNC(=O)c2cc3sccc3n2CC)cc1OCC | -14.3%

Following part
Structure | nsP2pro inh
COc1ccc(CCNC(=O)c2c(C)noc2-c2cc(OC)cc(OC)c2)cc1 | 2.7%
CC1(C)CC2C3=CCC4[C@@]5(C)CC[C@H](OC6OCC(O)C(OC7OC(CO)C(O)C(O)C7O)C6O)C(C)(C)C5CC[C@@]4(C)[C@]3(C)C[C@H](O)[C@@]2(CO)[C@H](OC(=O)c2ccccc2)C1 (stereo partly specified) | 2.1%[5.1 µM]
O=C(/C=C/c1ccccc1)NC(NC(=S)Nc1cccc2cccnc12)C(Cl)(Cl)Cl (stereo unspecified) | 8.3%&-6.8%
COc1cccc(CNC(=O)CCCCCn2c(=O)[nH]c3cc(OC)c(OC)cc3c2=O)c1 | -8.2%
COC(=O)CNC(=O)NCCc1ncc(C)n1C1CCCC1 | ?
COc1ccc(Cl)cc1NC(=O)CCn1c(=O)c2cccn2c2ccccc21 | -23.9%
C1Cc2[nH]nc(-c3nn[nH]n3)c2C1 | 8.81µM*
CCCOc1ccc(-c2nc(OC)c3ccccc3n2)cc1 | 11.0%

The results go on.
Structure | nsP2pro inh
O=C(Nc1cccnc1)c1ccco1 | 2.0%
CCCCC/C=C\C/C=C\CCCCCCCC(=O)NC(C)c1ccccc1 (stereo unspecified) | -14.0%
O=C1COc2ccc(OCc3cncs3)nc2CN1Cc1ccc(F)cc1 | -27.2%[39.2 µM]
CC(C)C[C@@H](NC(=O)[C@@H](Cc1ccccc1)NC(=O)[C@H](N)Cc1ccccc1)C(=O)N[C@H](CCCCN)C(=O)N1CCC(N)(C(=O)O)CC1 | 9.7%
CCOc1ccc(NC(=O)C(=O)NCC(c2cccnc2)N2CCc3ccccc32)cc1 (stereo unspecified) | -14.6%
CCCOc1ccc(C2c3c(oc4ccc(F)cc4c3=O)C(=O)N2CCc2ccc(OC)cc2)cc1 (stereo unspecified) | -11.2%
CC1CCC(C(=O)NC(C(=O)OCC(=O)c2ccccc2)C(C)C)CC1 (stereo unspecified) | -20.5%
COc1nc2c(cc1CNC(=O)c1cccnc1C)C(=O)N(C1CCCC1)C2 | -7.6%

(continued)
Structure | nsP2pro inh
CCOc1ccccc1CNC(=O)CCc1c(C)nn(-c2ccc(N3CCOCC3)nn2)c1C | -20.6%
CS(=O)(=O)c1ccc([C@@H](O)[C@@H](CF)NC(=O)C(Cl)Cl)cc1 | -9.6%&-7.1%
COc1cccc(-c2noc(COc3cccc(C)c3C)n2)c1 | -20.5%
CC1=C(C(=O)NCc2ccccc2)C(c2ccccc2Br)N=C(Nc2nc3ccccc3o2)N1 (stereo unspecified) | -12.5%
CCC(=O)N1CCc2cc(CNS(=O)(=O)c3cccs3)ccc21 | -5.4%
Cc1ccc(S(=O)(=O)c2nc(S(=O)(=O)c3ccc(C)cc3)c(NC(C)C)s2)cc1 | -12.7%
CCOC(=O)c1ccccc1NC(=O)C(=O)Nc1ccc2nc3n(c(=O)c2c1)CCCCC3 | -20.1%
COc1ccc(CSc2nc3ncc(Br)cc3[nH]2)cc1F | -6.8%

New compounds follow
molecule,nsP2pro inh
Cc1ccc(S(=O)(=O)Nc2ccc(C(=O)Nc3ncc(-c4ccccc4)s3)cc2)cc1,?
COc1ccc2cc(C(C)C(=O)Oc3ccc(C(N)=S)cc3)ccc2c1 (stereo unspecified),27.6%
Cc1cc(C)nc(NC(=S)N2CCN(c3cccc4[nH]ccc34)CC2)c1,i
Cc1ccc(S(=O)(=O)Cc2noc([C@@H]3C[C@@H](O)CN3Cc3cccc(C#N)c3)n2)cc1,-6.2%
O=C1CCCCC(C(=O)N2CC=C(c3ccccc3)CC2)N1 (stereo unspecified),-1.5%
NC(=O)C1CCN(c2nc(-c3ccc(Cl)cc3)cs2)CC1,-21.2%
CC/C=C/C=C/C1(C)OC(CC(CO)OC)=CC1=O (stereo unspecified),?
CCCCN(C)C(=O)C1CCC(CNS(=O)(=O)c2ccc3c(c2)CC(C)N3C(C)=O)CC1 (stereo unspecified),-2.6%
O=C(Nc1nnc(-c2ccncc2)s1)Nc1ccc(Cl)cc1F,-5.2%
CCC(C)(O)C1(C(=O)O)COC(=O)C1 (stereo unspecified),?
CC1=CC(=O)CC(C)(CO[C@@H]2O[C@H](CO)[C@@H](O)[C@H](O)[C@H]2O)C1(O)/C=C/C(C)=C/C(=O)O (stereo partly specified),12.5%[10 µM]
Cc1ccc(C2C=C(c3ccccc3)Nc3nc(NS(=O)(=O)c4ccc(C)cc4)nn32)cc1 (stereo unspecified),-22.5%

Next structures:
molecule,nsP2pro inh
CCCCCCCCCCCCC[N+](C)(C)Cc1ccccc1,45.1%[activator]
COc1ccc2c(c1)CC(C(=O)NCc1ccc(F)cc1)CO2 (stereo unspecified),-14.9%
COCC1CN(C)CC12CCN(C(=O)CC1=CCCCC1)CC2 (stereo unspecified),-4.7%
Cc1ccc(NS(=O)(=O)c2cc3c(cc2F)NC(=O)CC3)cc1Cl,4.4%&-0.9%&-4.5%&-9.8%
CC(=O)NC(c1cc(F)c2cccnc2c1O)C(C)C (stereo unspecified),4.2%
COc1ccc2c(c1)CN(C(=O)CCN1CCC(Cc3ccccc3)CC1)CCS2,-4.5%[10 µM]
C=CCc1ccc(OC(C)Cc2ccc(OC)c(OC)c2)c(OC)c1 (stereo unspecified),6.9%
C=C1CCC2C(C)(C)CC(=O)CC2(C)C1CCC(C)CCO (stereo unspecified),8.6%
Cn1c2cc(S(C)=O)sc2c2cnn(Cc3cccc(N)c3)c(=O)c21 (stereo unspecified),i
Cc1nn(C)c(C)c1S(=O)(=O)NCCc1noc(-c2cccnc2)n1,i
C[S+](CC[C@H](N)C(=O)O)C[C@H]1O[C@@H](n2cnc3c(N)ncnc32)[C@H](O)[C@H]1O (stereo partly specified),0.9%
Cc1nn(CCC#N)c(C)c1[C@@H]1C=C[C@@H](NCc2ccc(C(C)C)cc2)C1,?

The list continues:
molecule,nsP2pro inh
O=c1oc2c(CN3CCN(CCO)CC3)c(O)ccc2cc1-c1ccccc1,-16.9%
Cc1cccc(N2CCN(C(=O)Cn3c(=O)c4cccn4c4ccc(F)cc43)CC2C)c1 (stereo unspecified),-11.2%
O=C(NCc1nc(-c2ncccn2)no1)C1CC2(CCNCC2)CN1 (stereo unspecified),1.2%
CCOC(=O)N1CCC(NC(=O)c2ccc3c(c2)N(Cc2cc(C)ccc2C)C(=O)c2ccccc2S3(=O)=O)CC1,-11.2%
CN1C(=O)CN=C(c2ccccc2Cl)c2cc(Cl)ccc21,-6.1%
COc1ccc(CSc2nc3ccncc3n2CC(=O)Nc2cc(C)cc(C)c2)cc1,12.8%
COc1ccc(C(=O)Nc2ccc(N3CCN(c4ccccc4)CC3)c(C(=O)O)c2)cc1,?
COC1CC(O[C@H]2CC[C@]3(C)C4CC[C@]5(C)[C@@H](C6=CC(=O)OC6)[C@@H](OC(C)=O)C[C@]5(O)C4CC[C@@H]3C2)OC(C)C1O[C@@H]1O[C@H](CO)[C@@H](O)[C@H](O)[C@H]1O (stereo partly specified),44.4%[activator][10 µM]
Cc1ccc(NC(=O)c2ccc(Br)cc2)c(C(=O)c2ccccc2)c1,?
CNc1nc(C(=O)N2CCC3(CCC(=O)N(CC4CCCO4)C3)CC2)cs1 (stereo unspecified),-4.9%
CS[C@]1(CO)C(=O)N2[C@H]3C(=CC=C[C@@H]3O)C[C@@]2(SC)C(=O)N1C,-9.5%
O=C1NCc2ccccc2CC12CCCN2Cc1ccc(F)cc1F (stereo unspecified),-2.2%

Continued:
molecule,nsP2pro inh
C=C1CC[C@H](O)CC1=C/C=C1\CCC[C@]2(C)[C@@H]([C@H](C)/C=C/[C@H](C)C(C)C)CC[C@@H]12,?
Cc1ccc(-c2noc([C@@H]3Cc4nc[nH]c4CN3Cc3cccs3)n2)cc1,i
COc1ccc(-c2ncc3c(n2)OCCN(Cc2ccccc2)C3=O)cn1,-3.5%[39.2 µM]
NC(=O)c1ccccc1NC(=O)c1ccc(-c2ccc(Br)cc2)o1,-19.7%
CCCCCn1cc(C(=O)Cc2ccccc2OC)c2ccccc21,3.6%
CC(=O)Nc1sc2c(c1-c1ccc3[nH]ccc3c1)CCNC2,i
FC1(F)Oc2ccc(-c3ccc4ncnc(NCc5cccs5)c4c3)cc2O1,-2.6%
COc1ccc(C(=O)N2CCC(N3Cc4cnc(C)n4C3=O)CC2)cc1,i
Cc1ccc(CN2CCC3(CC2)CC(c2ccccc2)C(=O)N3C)cc1F (stereo unspecified),-9.7%
CCC1CCCCN1CCCNC(=O)CN1C(=O)CSc2ccc(S(=O)(=O)N3CCC(C)CC3)cc21 (stereo unspecified),5.2%
O=C(Nc1ccc2ccccc2c1)Nc1nnc(-c2ccncc2)s1,1.4%
Cc1ncoc1C(=O)N1CCC[C@H](n2c(=O)n(C)c3cccnc32)C1,-2.1%
CC(=O)OC[C@H](N)C(=O)c1ccccc1,-6.2%
Cc1ccc(-n2nc3c(=O)n(CCCC(=O)NCCc4ccccc4Cl)nc(C)c3c2C)cc1,-21.8%

Retrieved by compound from above, 4 records:
molecule,nsP2pro inh
COc1ccc2c(c1)CN(C(=O)CCN1CCC(Cc3ccccc3)CC1)CCS2,-4.5%[10 µM]
COc1ccc2c(c1)CC(C(=O)NCc1ccc(F)cc1)CO2 (stereo unspecified),-14.9%
O=C(Nc1cccnc1)c1ccco1,2.0%
Cn1cc(C(=O)N2CCCC(c3nnnn3C)C2)cn1 (stereo unspecified),i
